Bioassay records: PubChem, National Center for Advancing Translational Sciences (NCATS)
VDR inh: vitamin D3 receptor (human) inhibition; Potency, µM, for the others: max response, negative = inhibition, most hits filed as inhibitors; VDR-SRC2-3 peptide fluorescence polarization, 2 h; hit rate 0.93% among 400,000; AID 504847; P11473; active = well fitted inhibition curve with a large enough effect; inconclusive = small, poorly fitted or top-dose-only effect, or another doubt; inactive = no such curve, though single readings can be large or run the other way; also: series mostly up to about 120 µM
Target sequence (P11473 whole entry, looked up): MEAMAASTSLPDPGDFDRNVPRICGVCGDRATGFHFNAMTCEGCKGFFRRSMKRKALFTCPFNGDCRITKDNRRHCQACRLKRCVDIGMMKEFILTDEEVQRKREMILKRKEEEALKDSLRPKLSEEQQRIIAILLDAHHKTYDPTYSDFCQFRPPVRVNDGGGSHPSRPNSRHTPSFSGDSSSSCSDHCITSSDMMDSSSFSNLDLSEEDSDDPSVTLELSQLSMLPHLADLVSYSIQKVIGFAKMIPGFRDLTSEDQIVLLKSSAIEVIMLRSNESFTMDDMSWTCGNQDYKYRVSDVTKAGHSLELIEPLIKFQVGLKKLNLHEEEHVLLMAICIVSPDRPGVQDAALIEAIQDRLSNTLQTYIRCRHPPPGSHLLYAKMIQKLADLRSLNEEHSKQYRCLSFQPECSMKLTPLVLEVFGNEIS
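FP read-out; VDR + SRC2-3 coactivator peptide; 23 nl compound by pintool; 2 h RT incubation; reagents held at 4 deg C, protected from light.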
* marks the source's active call; other numbers are inactive results; ? = inconclusive; & = joins results of further samples. % is scaled to controls: 0 for no effect and ±100 for the full control effect; potency is read from the fitted curve at half-maximal effect. The list is partial (hit frequency here may not be typical).

SMILES | VDR inh
O=C(C1COc2ccccc2O1)N1CCN(c2ccccc2F)CC1 (stereo unspecified) | -13%
COc1ccc(C2C(C#N)=C(N)OC3=C2C(=O)CC(C)(C)C3)cc1Cn1nc(C)c([N+](=O)[O-])c1C (stereo unspecified) | -13%
O=C(CNC(=O)c1ccccc1Cl)OCc1cc(=O)n2nc(C3CC3)sc2n1 | 6%
O=C(CSc1nc2c([nH]c3ccccc32)c(=O)n1-c1ccc(Cl)cc1)NC1CCCCC1 | -1%
CCC(=O)N1CCN(c2ccc(NC(=O)c3cc4ccccc4o3)cc2)CC1 | 18%
Cc1cc(C)nc(NC(=O)NC(=O)c2ccccc2)n1 | -8%
COCCNCC(=O)C12CC3CC(CC(C3)C1)C2 | ?
Nc1ccccc1Oc1ccc2ccccc2c1 | -2%
Cc1nn2c(NCc3ccccn3)cc(C(C)(C)C)nc2c1-c1ccccc1 | -6%
O=C1C=C(c2ccccc2C(F)(F)F)C[C@@H](c2ccc3c(c2)OCO3)C1 | -16%
CCCN(Cc1nnc(-c2ccccc2Cl)o1)C(=O)c1ccc(C)c(S(=O)(=O)N2CCOCC2)c1 | -11%
O=C(COC(=O)CCC(=O)c1ccc(F)cc1)NCCc1ccccc1 | -8%

Sorted by number of heavy atoms (lowest first): four of the compounds above.
SMILES | VDR inh
Nc1ccccc1Oc1ccc2ccccc2c1 | -2%
O=C(C1COc2ccccc2O1)N1CCN(c2ccccc2F)CC1 (stereo unspecified) | -13%
O=C(COC(=O)CCC(=O)c1ccc(F)cc1)NCCc1ccccc1 | -8%
CCC(=O)N1CCN(c2ccc(NC(=O)c3cc4ccccc4o3)cc2)CC1 | 18%

Further records follow:
SMILES | VDR inh
Nc1ccc(S(=O)(=O)c2cccc(N)c2)cc1 | 2%
Cc1ccc(-c2noc(CSc3nnc(C)n3-c3ccc(F)cc3)n2)cc1 | 8%
COCCn1c(SCC(=O)NC2CCCC(C)C2C)nc2ccccc2c1=O (stereo unspecified) | 14%
CC1=C(C(=O)OCc2ccccc2)C(c2ccc(Cl)cc2Cl)NC(=O)N1CCCC(=O)O (stereo unspecified) | -1%
CC(=O)Nc1cccc(NC(=O)C2CC(=O)N(CCc3ccc(F)cc3)C2)c1 (stereo unspecified) | 3%
COc1ccc(OC)c(/C=N/NC(=O)CC(=O)NC2CCCCC2)c1 | -5%
CCOc1ccc(CNC(=O)C2CCN(C(=O)c3sccc3-n3cccc3)CC2)cc1 | 13%
O=C(NCC(=O)N(c1ccc2c(c1)OCO2)C(C(=O)NC1CCCC1)c1ccncc1)c1ccco1 (stereo unspecified) | -21%
CC(C)C(Nc1ncnc2c1oc1ccccc12)C(=O)O (stereo unspecified) | -13%
Cc1nnc(SCC(=O)Nc2ccc(C(N)=O)cc2)n1-c1ccccc1 | 6%
Cc1cc(Cl)ccc1OCCCC(=O)Nc1cccc(-n2cnnn2)c1 | -24%
COc1cc(C(=O)Nc2ccc(Cl)c(-c3nc4ncccc4o3)c2)cc(OC)c1OC | -11%

Reprinted from the part before: 2 entries; new compounds follow.
SMILES | VDR inh
Cc1cc(Cl)ccc1OCCCC(=O)Nc1cccc(-n2cnnn2)c1 | -24%
COc1cc(C(=O)Nc2ccc(Cl)c(-c3nc4ncccc4o3)c2)cc(OC)c1OC | -11%
CCOC(=O)NNc1ccc(C(F)(F)F)cn1 | -1%
CC1(C)Oc2ccc(C(=O)Nc3ccccc3F)cc2N(CC(=O)N2CCOCC2)C1=O | -7%
COc1ccc(C2C(C#N)=C(N)Oc3c2ccc2cccnc32)cc1OC (stereo unspecified) | 16%
COc1cccc2oc3cc(C#Cc4ccccn4)ccc3c(=O)c12 | -20%
CC(C)NC(=O)NC(=O)CSc1ccc(S(=O)(=O)N2CCCC2)cn1 | ?
O=C(COc1cccc(Cl)c1Cl)Nc1ccc2c(c1)CCC2 | -12%
CCOc1cc(C)c(C(C)C)cc1S(=O)(=O)n1ccnc1CC | 11%
Nc1nc(Nc2ccccc2)sc1C(=O)c1ccccc1 | 20%
Cc1c(-n2c(O)c(C3=c4ccccc4=NC3=O)sc2=S)c(=O)n(-c2ccccc2)n1C | -19%
COC(=O)c1ccc(CN2CCCC(C(=O)Nc3cccc(-n4cccn4)c3)C2)cc1 (stereo unspecified) | 21%
CC1CCCN(C(=S)Nc2ccc(F)cc2)C1 (stereo unspecified) | 0%
CCOc1ccccc1NC(=O)CCn1cccc1 | 22%
Cc1cc(C)c2c(c1)/C(=N/NS(=O)(=O)c1ccc(Br)cc1)CCC2 | -11%
CC(C)(C)c1ccc(C(=O)N/C(=C\c2ccco2)C(=O)Nc2ccccc2C(=O)O)cc1 | -17%
O=C(NCCc1ccccc1F)C1CCCN(c2nc3ccccc3s2)C1 (stereo unspecified) | 4%
CCOC(=O)C1C(C)=CC(=O)CC1c1ccco1 (stereo unspecified) | -11%
CCOC(=O)N1CCc2c(sc3c2c(=O)n(-c2ccc(CC)cc2)c(=O)n3CC(=O)c2ccccc2)C1 | -12%
O=C(Nc1ccc(S(=O)(=O)N2CCCC2)cc1)c1cc(=O)c2ccccc2o1 | -14%
CCOC(=O)C(=CNc1cc(C)nn1-c1ccccc1)C(=O)OCC | -18%
Cc1ccc(-c2nc(CS(=O)(=O)CC(=O)NCCCN3CCN(C)CC3)c(C)o2)cc1 | -2%
Cc1ccc(CNC(=O)CNS(=O)(=O)c2ccc3nc(C)sc3c2)cc1 | 3%
CCc1ccc2oc(C(=O)Nc3cc(C)ccc3C)cc(=O)c2c1 | 11%
CCc1cc(Cn2nc(-c3ccccc3)cc2C(=O)NCc2cccc(Br)c2)on1 | 3%
CCOc1ccc(CCNC(=O)C2CCC(=O)N2CCc2ccccc2)cc1OCC (stereo unspecified) | 6%
O=C(NCCC(=O)N1CCCC(C(F)(F)F)C1)c1ccccc1Cl (stereo unspecified) | -29%
COCCOC(=O)C1=C(C)NC(=O)NC1c1ccc(OC(=O)c2ccco2)c(OC)c1 (stereo unspecified) | 1%
Cc1nn(C)cc1/C=C/C(=O)c1cccs1 | -13%
O=C(COC(=O)Cc1ccccc1F)Nc1ccc2c(c1)OCCO2 | 0%
CC(=O)N1C(C(=O)O)CSC1c1cccc(C)c1 (stereo unspecified) | 2%
Cc1ccc(CN2C(=O)SC(Nc3ccc(Cl)cc3)C2=O)cc1 (stereo unspecified) | 8%
CCCCN1C(=O)C(NC(C)=O)c2cc(Br)ccc21 (stereo unspecified) | -14%
Cc1ccc(/C=C/C(=O)N2CC(=O)Nc3ccccc32)o1 | -10%
CN(C)S(=O)(=O)c1cc(C(=O)Nc2ccccc2C(=O)NC2CC2)ccc1Cl | -1%
Cc1ccsc1C(=O)Nc1ccc(F)c([N+](=O)[O-])c1 | -10%
Cn1nc(C(F)(F)F)cc1-c1ccc(/C=C(\C#N)C(=O)c2ccccc2)s1 | 0%
O=C(Nc1ccc(Oc2cccnc2)cc1)C1CCN(Cc2ccc(F)cc2)CC1 | -14%
CCOCCCNC(=S)Nc1ccc2nc(N3CCN(CC)CC3)cc(C)c2c1 | -3%
CCOCCCNC(=O)CN1C(=O)c2cccnc2Sc2ccccc21 | 6%
CCn1c(COc2ccc(=O)n(-c3ccccc3)n2)nnc1SC | -3%
O=C(c1ccc(CS(=O)Cc2ccc(Cl)cc2)o1)N1CCN(c2ccccn2)CC1 (stereo unspecified) | 14%
CCOc1ccc(C(C(=O)NC2CCCC2)N(C(=O)c2snc(C(N)=O)c2N)C2CCCC2)cc1 (stereo unspecified) | -18%
O=C(CSc1ccccn1)N/N=C/c1cc([N+](=O)[O-])ccc1O | -7%
O=C(/C=C/NNC(=O)c1ccccc1)c1ccc([N+](=O)[O-])cc1 | -2%
COc1cc2nc(Nc3ccc(F)cc3)nc(N)c2cc1OC | -6%&-7%
Cc1ccc(S(=O)(=O)NC(=NC2CCCCC2)c2ccc(F)cc2)cc1 | -12%
Cc1nc2ncnn2c(C)c1CCC(=O)N1CC(C)CC(C)C1 (stereo unspecified) | -11%
O=C(Cn1nc(Cc2ccncc2)c2ccccc2c1=O)Nc1cccnc1Cl | -1%
CC(=O)Nc1cccc(-n2cc3c(c2-c2ccccc2Cl)c(=O)n(C)c(=O)n3C)c1 | -1%
CC1=NNC(=O)C1CCC(=O)N/N=C/c1ccc(Cl)cc1Cl (stereo unspecified) | -1%
CCN(c1ccccc1)S(=O)(=O)c1c(C)noc1C | 12%
O=C(COC(=O)c1cc([N+](=O)[O-])ccc1Cl)NCCc1ccccc1 | 2%
O=C(Nc1ccccc1)C1=C[C@@H](c2csc3ccccc23)C[C@@H](OCc2ccc(CO)cc2)O1 | -14%
Cc1ccc(-c2nc3ccccn3c2C=O)cc1 | -6%
CC(C)c1ccc(Nc2nc3c(S(=O)(=O)c4ccc(Br)cc4)nnn3c3ccsc23)cc1 | 6%
CCOC(CN=c1nc(N(C)C)ss1)OCC | ?
Cc1cccc(C(=O)OCC(=O)NC2CCCCCCC2)c1 | 8%
Cc1cccc(NC(=O)Cn2c(=O)n(Cc3ccc(C(=O)NCc4ccc5c(c4)OCO5)cc3)c(=O)c3ccccc32)c1 | 5%
Cc1ccc(NC(=O)c2ccc(-n3cccn3)nc2)cc1 | 3%
Cc1cccc(C2=NN(c3ccccc3)[C@H](CO)[C@H]2c2ccccc2)c1 | -7%&-5%
CCOc1ccccc1NC(=O)CSc1nnc(CNC(=O)c2cc(OC)c(OC)c(OC)c2)o1 | 18%
Following part:
SMILES | VDR inh
CC(C)(C)c1ccc(C(=O)NCc2cccnc2)cc1 | 17%
CCOc1cc(/C=C2/C(=N)N3C(=NC2=O)SN=C3S(C)(=O)=O)ccc1OS(=O)(=O)c1ccccc1 | 25µM*
COc1cccc(/C=C/C(=O)c2c(O)cc(C)oc2=O)c1O | ?
CCCc1nnc(NC(=O)CCC(=O)N2CCN(Cc3ccccc3)CC2)s1 | -14%
O=C(CCCCCn1c(=S)[nH]c2ccc(N3CCOCC3)cc2c1=O)NCc1ccccc1 | -7%
COc1ccc(OCC(=O)Nc2ccc(N3CCN(C(=O)c4ccccc4)CC3)c(Cl)c2)cc1 | -20%
Cc1sc2nc(SCc3nc4ccccc4[nH]3)n(Cc3ccco3)c(=O)c2c1C | -7%
C=C(C)CN(CC)C(=O)CSc1ccc(S(=O)(=O)N2CCN(Cc3ccccc3)CC2)cn1 | -3%
Cc1nn(-c2cc(C(F)(F)F)ccc2Cl)c2nc(C(F)(F)F)[nH]c(=O)c12 | 9%
Cc1ccccc1CSCc1nc(N)nc(Nc2ccccc2C)n1 | 9%
CCOC(=O)c1oc2ccccc2c1CSc1nnnn1-c1ccc(OC)cc1 | -18%
COc1cccc(C(=O)NCCS(=O)(=O)N2CC(C)CC(C)C2)c1 (stereo unspecified) | ?
CCCc1c(NC(=O)Nc2ccc(Cl)cc2Cl)cnn1-c1ccccc1 | 0%
O=C(COc1ccc(Cl)cc1)Nc1ccc(C(=O)NCc2cccnc2)cc1 | 2%
CC(O)c1cccc(NC(=O)CC(c2ccccc2)c2ccccc2)c1 (stereo unspecified) | -23%
Fc1ccc(/C=N/Nc2ccccn2)cc1 | -2%
COc1ccc(NC(=O)C(=O)NCC(=O)Nc2cc(OC)ccc2OC)cc1 | -3%
CC1(NC(=O)c2cccc(S(=O)(=O)N3CCN(c4ccccc4)CC3)c2)CCS(=O)(=O)C1 (stereo unspecified) | 6%
S=C(NCC1CCCO1)Nc1ccccc1Cl (stereo unspecified) | -15%
COc1ccc(CNC(=O)CCc2nnc3n(C)c(=O)c4sccc4n23)cc1 | -4%
CC1(C)Oc2ccc3ccc(=O)oc3c2-c2cn[nH]c21 | -8%
OCCOCCn1c(C(CO)Nc2nc(-c3cccc(Br)c3)cs2)nc2ccccc21 (stereo unspecified) | -3%
Cc1cc(OCC(=O)Nc2ccc3oc(=O)ccc3c2)ccc1Cl | 11%
CCc1nnc(NS(=O)(=O)c2ccc(N=Cc3c(C)[nH]n(-c4cccc(Cl)c4)c3=O)cc2)s1 | -25%

Brought forward from above: seven entries, then new ones.
SMILES | VDR inh
CC1(NC(=O)c2cccc(S(=O)(=O)N3CCN(c4ccccc4)CC3)c2)CCS(=O)(=O)C1 (stereo unspecified) | 6%
S=C(NCC1CCCO1)Nc1ccccc1Cl (stereo unspecified) | -15%
COc1ccc(CNC(=O)CCc2nnc3n(C)c(=O)c4sccc4n23)cc1 | -4%
CC1(C)Oc2ccc3ccc(=O)oc3c2-c2cn[nH]c21 | -8%
OCCOCCn1c(C(CO)Nc2nc(-c3cccc(Br)c3)cs2)nc2ccccc21 (stereo unspecified) | -3%
Cc1cc(OCC(=O)Nc2ccc3oc(=O)ccc3c2)ccc1Cl | 11%
CCc1nnc(NS(=O)(=O)c2ccc(N=Cc3c(C)[nH]n(-c4cccc(Cl)c4)c3=O)cc2)s1 | -25%
COc1cc(OC)cc(C(=O)NCc2n[nH]c(=S)n2-c2ccccc2OC)c1 | -11%
O=S(=O)(NCc1ccccc1)c1cccc2nonc12 | 18%
O=C(COc1ccc(Cl)cc1Br)Nc1cccc(S(=O)(=O)N2CCCC2)c1 | 0%
CC1CCN(CC(C)CNC(=O)c2cc(-c3ccccn3)nc3ccccc23)CC1 (stereo unspecified) | 0%
CC(=O)N1CCOc2ccc(S(=O)(=O)N3CCC(C(=O)Nc4ccc(F)cc4)CC3)cc21 | 19%
COCC(C)n1c(C)cc(C(=O)COC(=O)CN=C2NS(=O)(=O)c3ccccc32)c1C (stereo unspecified) | -13%
CCOCCCn1c(=S)[nH]c2cc(C(=O)N3CCOCC3)ccc2c1=O | -3%
O=C(NCc1cccs1)C1CC(=O)N(C2CCCC2)C1 (stereo unspecified) | 19%
CCN(CC)C(=O)CSc1nsc(SCC(=O)N(CC)CC)c1C#N | -9%
O=C(Cc1ccccc1)NN=Cc1ccccc1 | -6%
Cc1nc(N2CCN(C)CC2)[nH]c(=O)c1Cc1cccc2ccccc12 | 5%
CCC(=O)c1ccc(N2CCN(C(=O)c3cccc(F)c3)CC2)c(F)c1 | 5%
Cc1nn(CCCC(=O)NC2CCC(C)CC2)c(=O)c2nn(-c3ccccc3)c(C)c12 (stereo unspecified) | -9%
